# NPYLR7 ag: mosquito NPYLR7 agonism. activation, % at 10 µM. HEK293T NPYLR7/Galpha15, GCaMP6s calcium fluorescence. 270,000 compounds, 0.15% hits. AID 1259423; in the data active = activation above about 40%;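 also: 0% = vehicle and 100% = reference agonist at the receptor; some compounds past the cut are filed as inactive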
# NPYLR7 ag max-min: recorded beside NPYLR7 ag, whose call it bears; activation, %; measured here: Max-Min RFU normalised activation; some inactives read as strong as hits;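 span of the calcium signal over five minutes; 0% = vehicle and 100% = native peptide agonist; compound fluorescence can raise it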
# * marks the source's active call; other numbers are inactive results; & = joins results of further samples.
SMILES	NPYLR7 ag	NPYLR7 ag max-min
CC(C)c1ccccc1NC(=O)c1cccnc1Nc1cc(Cl)cc(Cl)c1	-3	-9
C[C@]12C=CC(=O)C=C1CC[C@H]1[C@@H]3C[C@@H](O)[C@](O)(C(=O)CO)[C@@]3(C)C[C@H](O)[C@@]12F	-2&4	-2&-14
CCc1ccc(CNCc2cn(-c3ccccc3)nc2-c2ccc(OC)cc2F)nc1	1	-1
CCC(=O)N1CCC1(C)C(=O)Nc1cc(C)nc2ccccc12 (stereo unspecified)	4	1
COc1ccc(CCN(C)c2cc(C)nc(SCc3ccc(C(=O)O)cc3)n2)cc1OC	11	20
NS(=O)(=O)N1CCN(Cc2ccc(F)c(Br)c2)CC1	13	11
O[C@H]1C[C@@H]2CN(Cc3cccc(Oc4ccccc4)c3)C[C@@H]2C[C@@H]1O	-1	0
O=C1CCCN1CCCNc1nc(CN2CCCCC2)nc2sc3c(c12)CCC3	0	7
COc1ccc(-n2c(=O)[nH]c3c(C(N)=O)nc(-c4ccccc4)nc32)c(OC)c1	-4	-5
Cc1nnc(SCCn2c(N(C)Cc3ccccc3)nc3c2c(=O)n(C)c(=O)n3C)s1	4	-2
COc1cccc(C(=O)N2CCC3(CC2)C(=O)N(CC(=O)NC2CCCCC2)CN3c2ccccc2)c1	25	22
COc1ccc(C2(C(=O)N3CCCC(N4CCOCC4)C3)CCCC2)cc1 (stereo unspecified)	11	7
Cn1nc(-c2ccc(F)cc2)c2cc(C(=O)NCCNC(=O)c3ccc(F)cc3)sc21	6	3
COc1cccc(-c2cnnc(N3CCC(c4ccccc4F)C3)n2)c1 (stereo unspecified)	-1	-3
Cc1ccc(CN2CCN(C(=O)Cn3nnnc3CN3CCOCC3)CC2=O)cc1	4&-4	3&-5
Cc1ccccc1Nc1nc(-c2cnc(N3CCCCC3)nc2C)cc(=O)[nH]1	3	1
CCc1nc2ccc(C(=O)NCc3cccs3)cn2c1N(C)Cc1ccc(OC)cc1	49	35
CCc1nc2ccc(C(=O)N(C)Cc3ccco3)cn2c1N(CC)CCN(C)C	-5	-8
Cc1sc2nc(Cc3nc(-c4ccccc4)n[nH]3)[nH]c(=O)c2c1C	-1	-1
Cc1onc(-c2ccccc2Cl)c1C(=O)Nc1ccc2ccccc2c1	16	11
CCCNC(=O)C1(C)CCN1C(=O)c1ccccc1CCc1ccccc1 (stereo unspecified)	7	8
COc1cccc(Oc2cc(N3CCN(C(=O)NC4CCCCC4)C(C)C3)ncn2)c1 (stereo unspecified)	-23	-22
CC(C)(C)C(=O)Nc1ccnn1C1CCN(C(=O)C2=CCCC2)CC1	3	0
Cc1cccc(C)c1NC(=O)c1ccccc1NC(=O)CN(C)Cc1ccccn1	9	1
COc1ccc(OC)c(NC(=O)c2cnn3c2NC(c2ccc(C)cc2)CC3C(F)(F)F)c1 (stereo unspecified)	-11	-16
Cc1cccc2c3c([nH]c12)CCC(NC(=O)C1CCCO1)C3 (stereo unspecified)	27	17
CCCc1[nH]n(-c2ccc(Cl)c(Cl)c2)c(=O)c1C1=C([n+]2cccc(C)c2)C(=O)N(Cc2ccccc2)C1=O	-18	-15
C[C@@H]1CN(Cc2cc3n(n2)CCNC3)C[C@H](C)O1	5	3
Cc1cc(C)c(Cn2ccnc2CN(Cc2ccco2)C(=O)c2ccc(F)cc2)c(C)c1	-2	9
CC1(C2CC2)CC(=O)N(CC(=O)N2CCC3(CCc4ccccc43)CC2)C1 (stereo unspecified)	24	12
C#CC1(OCC(O)CN2C(C)(C)CC(O)CC2(C)C)CCCCC1 (stereo unspecified)	0	17
CCN1Cc2cc(F)ccc2N(C(=O)C2CCC2)CCC1=O	26	35
O=C(c1ccnc(-n2cnnc2)c1)N1CCC2(CC1)C(=O)Nc1ccccc12	-1	7
Nc1ccn(C2CC(O)C(CO)O2)c(=O)n1 (stereo unspecified)	-22	-27
C=CCNc1ccccc1C(=O)N(C)CC1CCN(c2ccccc2)C1 (stereo unspecified)	6	4
O=S(=O)(NCc1ccc2c(c1)OCO2)C1=Cc2ccccc2CC1	2	1
Cc1cc(-n2c(C)cc(C(=O)N3CCc4ccccc43)c2C)no1	5	5
O=c1[nH]c2ccccc2cc1CN1CC[C@@H](c2ccc3c(c2)OCO3)[C@H](O)C1	-6	-9
O=C(c1cnc(CN2CCCC2)s1)N1C[C@@H]2CNC[C@]2(C(=O)O)C1	-2	0
O=C(c1ccccn1)N1CCCC(CCc2ccccc2C(F)(F)F)C1 (stereo unspecified)	5	1
O=C(O)c1cc(-c2ccccc2F)nn1-c1ccccc1Cl	13	21
FC(F)(F)Oc1ccc(CNc2nccnc2-c2cc(C(F)(F)F)cc(C(F)(F)F)c2)cc1	15	2
O=C(CN1CCc2[nH]ncc2C1)NCc1ccccc1F	18	7
CN(C(=O)c1ccc(NC2CC2)nc1)c1ccc(C(C)(C)C)cc1	17	0
CC(C(=O)N1CCc2c(nc(-c3ccccc3)[nH]c2=O)C1)n1ccnc1 (stereo unspecified)	-1	-1
CCC(CC)n1c(=O)n(Cc2ccncc2)c2cc(C(=O)O)cnc21	14	3
Cc1cc(OC(=O)N2CCOCC2)cc2c1C(=O)/C(=C/c1cccnc1)O2	2	0
COC(=O)c1c(C)c(C(=O)C(C)N(Cc2ccc(F)cc2)C(=O)C(C)Cl)c(C)n1C (stereo unspecified)	-14	-13
Cc1nc(N2CCC(C(N)=O)CC2)c2c3c(sc2n1)CC(C)CC3 (stereo unspecified)	-13	-16
CCc1ccccc1NC(=O)C1CSC2(C)CCC(=O)N12 (stereo unspecified)	-2	-4
CCCCC(Sc1c(CCC)cnc2c1c(=O)n(C)c(=O)n2C)C(=O)O (stereo unspecified)	6	5
CCC(C)(C)c1ccc(OCCCCNC(=O)c2cc(-c3ccccc3Cl)nn2-c2ccc(OC)cc2)c(C(C)(C)CC)c1	25	18
CCCC(C#N)NC(=O)Cn1c(-c2ccc(C)cc2)n[nH]c1=S (stereo unspecified)	7	4
Cc1nc(C(=O)N2CC(=O)N(C3CCCCC3)CC(OCc3ccccc3)C2)cs1 (stereo unspecified)	2	-9
COc1ccc(-c2cnc3ncnn3c2N2CCCC2)cc1	4	5
Cc1nn(CC(=O)N2CCOCC2)c(C)c1S(=O)(=O)N1CCOCC1	-1	7
O=C(Oc1ccc2sc(=O)oc2c1)c1ccco1	5	4
CCC(CC)NC(=O)COC(=O)C1=CC=CN2CCS(=O)(=O)N=C12	0	-1
Cc1cn2c3c(=O)n(Cc4ccc(F)cc4)c(=O)n(C)c3nc2n1C(C)C	12	6
O=S(=O)(NCc1ccccc1)Nc1ccc(CCN2CCCC2)cc1	-1	-3

# Remaining list, next part.
SMILES	NPYLR7 ag	NPYLR7 ag max-min
CCOc1cc(CN2CCCC(CO)(Cc3ccccc3C)C2)ccc1OC (stereo unspecified)	5	6
CCOC(=O)c1c(C)[nH]c(C(=O)COC(=O)Cn2cc(C(F)(F)F)ccc2=O)c1C	-1	2
Cc1ccsc1C(=O)N1CCC1(C)C(=O)Nc1cc(C(C)(C)C)on1 (stereo unspecified)	4	3
Cc1c(Cl)cc(F)cc1S(=O)(=O)N1CCC(c2c[nH]c3ccc(F)cc23)CC1	11	6
N#CC(C#N)=Cc1cn[nH]c1-c1cc2ccccc2o1	-1	50
COc1ccc(-c2cc(C)ccc2OCC(N)=O)cc1OC	-1	0
CCC(=O)Nc1c(-c2ccc(Cl)cc2)nc2ccccn12	-10	-3
FC(F)C(F)(F)Oc1cccc(Nc2nccn3c(-c4cc(C(F)(F)F)cc(C(F)(F)F)c4)cnc23)c1	-2	-6
O=C(c1ccc(-c2noc(C3CC3)n2)cc1)N1CC[C@H](CO)[C@@H](O)C1	0	-5
CC(C)(C)c1ccc(CC(=O)N2CCC2(C)C(=O)NCc2ccc(Cl)cc2)cc1 (stereo unspecified)	-2	-6
O=C(Cc1nc2ccc(Cl)cc2[nH]1)N1CCn2cncc2C1	21	12
CCOc1ccc(C2c3cccn3CCN2C(=O)NCc2ccccc2)cc1 (stereo unspecified)	12	7

# Some of these compounds in order of molar mass, highest first.
SMILES	NPYLR7 ag	NPYLR7 ag max-min
CCOC(=O)c1c(C)[nH]c(C(=O)COC(=O)Cn2cc(C(F)(F)F)ccc2=O)c1C	-1	2
COc1ccc(-c2cc(C)ccc2OCC(N)=O)cc1OC	-1	0
N#CC(C#N)=Cc1cn[nH]c1-c1cc2ccccc2o1	-1	50

# Next results.
SMILES	NPYLR7 ag	NPYLR7 ag max-min
CC1CC1C(=O)NCCC(=O)Nc1nc2ccccc2n1C1CCCCC1 (stereo unspecified)	-1	-2
Cc1ccccc1C(=O)N1C(=S)C(c2ccc(F)cc2)=NC12CCN(C)CC2	4	13
O=C(O)c1[nH]ncc1CN1CCO[C@@H]2CCCC[C@H]21	15	7
CC(=O)Cn1c(=O)c2c(nc3n(-c4ccccc4F)c(C)cn23)n(C)c1=O	1	25
C=CCN(Cc1csc(COc2c(OC)cccc2OC)n1)C(=O)c1cccc(Br)c1	-2	1
COCCCNC(=O)CSCc1cc(Cl)c2c(c1)OCO2	6	1
OCCNc1nc(N2CCCC2)nc2c1cnn2-c1ccc(F)cc1	2	2
COCC(=O)N1CCC(n2c(C)nc3cc(C(F)(F)F)ccc32)CC1	2	0
O=C(O)C1CN(S(=O)(=O)c2cccc3ccccc23)CCN1 (stereo unspecified)	4	2
O=C(NC1=NCCS1)c1cn(Cc2ccccc2)nc1OCc1ccccc1	-5	-4
CN(C1=NC2CS(=O)(=O)CC2S1)c1ccc(Cl)cc1 (stereo unspecified)	3	0
CCC(C)(C)NC(=O)c1ccc(-n2nc(-c3cccc(C(F)(F)F)c3)cc2N)cc1	-6	-15
Cc1csc2ncnc(N3CCCC(Cn4cc(C(=O)O)nn4)C3)c12 (stereo unspecified)	5	2
COc1ccc(S(=O)(=O)Nc2ccc(CC(=O)NC3CC3)cc2)cc1Cl	-8	-9
Cc1cccnc1C(C)Nc1nccc(CCC(F)(F)F)n1 (stereo unspecified)	-7	-10
CC(C)(C)c1ccc(OCc2n[nH]c(=S)n2C2CCCC2)cc1	6	5
O=C(O)c1ccc(N[C@@H]2OC[C@@H](O)[C@@H](O)[C@@H]2O)cc1	1	1
COCC(=O)N1CCCN(C2CCC3(CCNCC3)CC2)CC1	-4	-4
CC(C)=CCC/C(C)=C/C(=O)N1CCCC1c1nnc2c(C(F)(F)F)cccn12 (stereo unspecified)	-7	-13
COc1cc(NC(=O)CSc2nnc3ccc(-c4cccc(OC)c4)nn23)cc(OC)c1	-15	-16
O=C(c1ccn(-c2ccc(F)cc2)n1)N(CCO)Cc1cccnc1	-2	-3
O=C(CCN1CCN(c2ccccn2)CC1)Nc1ccsc1	-21	-23
COC(=O)c1cccc(CN2CCC(c3nc4c(C)cccc4[nH]3)CC2)n1	1	-1
O=C1CC2(C(=O)N1CCOc1ccccc1)C(=O)N(Cc1ccccc1)c1ccc(Cl)cc12 (stereo unspecified)	9	-3
Cc1cc(C)c2nc(N(Cc3cccnc3)C(=O)c3ccc([N+](=O)[O-])s3)sc2c1	-6	-3
COc1ccc(OC)c(C2SCCN2C(=O)Nc2ccccc2Br)c1 (stereo unspecified)	20	24
CSc1ccc(CN2CCC2(C)C(=O)NC(C)(C)C)cc1 (stereo unspecified)	1	0
CCN1CCN(c2nc(Nc3ccccc3)c3cnn(-c4ccccc4)c3n2)CC1	1	0
Cc1c(C(=O)NCCSCc2ccco2)cnc2c(-c3ccccc3F)cnn12	14	21
CCOCCN(CCOCC)c1cc(CC)nc2ncnn12	13	6
C[C@]12CCC3c4ccc(O)cc4CCC3C1CC[C@@H]2OC(=O)CCC1CCCC1 (stereo partly specified)	-6	-13
Cc1nc2c(c(=O)[nH]1)CCN(C(=O)c1cccc(C#CC(C)(C)O)c1)C2	5	5
CCCc1nc(N(C)Cc2ccno2)c2cnn(C)c2n1	1	-1
Cc1cc(-n2c(C)cc(C(=O)COC(=O)CCC(=O)c3cc(C)sc3C)c2C)no1	-3	19
COc1cccc(CN2COc3ccc4c(c3C2)O/C(=C\c2ccncc2)C4=O)c1	66*	62*
Cn1ccnc1CC1CCCN(C(=O)C2CC2c2ccccc2F)C1 (stereo unspecified)	4	2
COc1ccc(Cl)cc1S(=O)(=O)Nc1ccc(C)c(Cl)c1	2	-1
COc1ccc(-c2noc(CNCCN3CCNC3=O)n2)cc1	9	4
Cc1nc(-n2nc(-c3cccs3)cc2NC(=O)/C=C\c2ccc3c(c2)OCO3)[nH]c(=O)c1C	-1	-2
CC1(Cc2ccc(C(F)(F)F)o2)C(=O)Nc2cc(C(F)(F)F)ccc21 (stereo unspecified)	4	1
Cn1c(=O)c2c(-c3ccc(F)cc3)c(Nc3ccccc3)oc2n(C)c1=O	-8	-9
Cc1cc(NC(=O)CN2CC(C(=O)N3CCCCC3)Oc3ccccc32)c([N+](=O)[O-])cc1C (stereo unspecified)	12	14
Cc1c(CO)cccc1NC(=O)c1cccc2[nH]c(-c3ccc(N(C)C)cc3)nc12	0	21

# Quoted at random: 5 records from the list
SMILES	NPYLR7 ag	NPYLR7 ag max-min
Cc1nc(-n2nc(-c3cccs3)cc2NC(=O)/C=C\c2ccc3c(c2)OCO3)[nH]c(=O)c1C	-1	-2
Cn1c(=O)c2c(-c3ccc(F)cc3)c(Nc3ccccc3)oc2n(C)c1=O	-8	-9
Cc1c(CO)cccc1NC(=O)c1cccc2[nH]c(-c3ccc(N(C)C)cc3)nc12	0	21
COc1ccc(Cl)cc1S(=O)(=O)Nc1ccc(C)c(Cl)c1	2	-1
Cc1cc(NC(=O)CN2CC(C(=O)N3CCCCC3)Oc3ccccc32)c([N+](=O)[O-])cc1C (stereo unspecified)	12	14

# Bioassay records: PubChem, Fisher Drug Discovery Resource Center

# These rows are one share of the data; count on the stated rates, not on these rows.
